# Screening results as filed in PubChem BioAssay.
# Mtb betalactam: beta-lactam sensitization of Mtb H37Rv, H37Rv; M. tuberculosis H37Rv growth with meropenem, percent inhibition; hits of this screen are not shown here; inhibition, % at 25 µM; hit rate 0.27% among 330,000; AID 434955, 2010;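 active = about 74% or more and at least 40 points above the plate without the antibiotic, then above 30% in a dose series; inconclusive = first-round hits that could not be retested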;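 note: growth measured after seven days incubation then overnight dye step; 0% = bacteria only wells and 100% = bacteria with antibiotic; twin plates without the antibiotic show which effects depend on it; some results filed as inactive read as strong as hits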
# The depositor's hits bear a star; ? = inconclusive. Some of the compounds tested; rates above refer to the full screens.
SMILES,Mtb betalactam
O=C(COC(=O)/C=C/c1cccc(F)c1)Nc1cccc(S(=O)(=O)NC2=NCCCCC2)c1,-0.7
CC1CCCC(C)N1C(=O)COC(=O)c1c[nH]c2ccccc12 (stereo not drawn),-2.9
C[C@H](NC(=O)c1ccc(C(C)(C)C)cc1)C(=O)N1CCOCC1,-7.4
C=Cn1cc[n+](CC(=O)c2ccc(-c3ccccc3)cc2)c1,-4.9
CCCn1c(CCl)nc2cc(S(=O)(=O)N3CCOCC3)ccc21,-9.8
CC1CC(C)CN(C(=O)CSc2n[nH]c(N)n2)C1 (stereo not drawn),-6.2
CCCNC(=O)CSc1ccc(S(=O)(=O)N2CCCC2)cn1,3.6
Cc1ccc(C2(C)NC(=O)N(CC(=O)Nc3ccc4c(c3)CCC4)C2=O)cc1 (stereo not drawn),-11.5
C#CCOCCOCCOCCNc1nc(N2CCN(C(=O)[C@H]([C@@H](C)O)n3cc(CCCCN)nn3)CC2)nc(N2CCN(C(=O)[C@H]([C@@H](C)CC)n3cc(CCCCN)nn3)CC2)n1,-2.1
Cc1ccc(S(=O)(=O)NC(C)C(=O)NC(C)c2cccs2)cc1 (stereo not drawn),-0.7
CSCCC(NC(=O)c1ccccc1Cl)C(=O)N1CCCCCCC1 (stereo not drawn),-1.5
C=CC[C@@H](CC(=O)N[C@@H](CO)Cc1ccccc1)C(=O)N[C@H](COC(=O)[C@@H](CC=C)Cc1ccc(F)cc1)Cc1c[nH]c2ccccc12,-4.7
Cc1ccc(N(CC(=O)NCc2ccco2)C(=O)CCC(=O)Nc2nccs2)c(C)c1,-0.1
Cc1ccc(S(=O)(=O)N2CCC(C(=O)OC(C)C(=O)NC3CCCCC3C)CC2)cc1 (stereo not drawn),-10.7
c1ccc(NC2=NCCN2CCCC2CCCC2)cc1,-4.5
O=C(NS(=O)(=O)Nc1ccccc1)C1=C(N2CCCC2)COC1=O,15.5
COc1ccc(NS(=O)(=O)c2cccc(C(=O)OCC(=O)N3CCN(c4ccc(OC)cc4)CC3)c2)cc1,-1.6
Cc1cccc([N+](=O)[O-])c1NC(=O)COC(=O)C1CCCO1 (stereo not drawn),-2.9
COc1ccc(NC(=O)Cc2nnc(SCC(=O)Nc3nccs3)n2C)cc1,-3.1
Nc1cc(S(=O)(=O)N2CCOCC2)ccc1N1CCOCC1,-2.3
CCc1ccc(N(C(=O)c2ccco2)C(C(=O)NC2CCCC2)c2cccnc2)cc1 (stereo not drawn),-4.5
Cc1cc(=O)oc2cc(OCC(=O)N3c4ccccc4NC(=O)C3(C)C)ccc12,-0.4
CCCCC1(COC(=O)CCC(=O)O)C(=O)N(c2ccccc2)N(c2ccccc2)C1=O,2.6
O=C(NCCc1ccccc1)C(c1ccccc1F)N(C(=O)c1csnn1)C1CC1 (stereo not drawn),-4.3
CC1=C(C)CC2C(C1)C(=O)c1ccc(Br)cc1S2(=O)=O (stereo not drawn),5.4
CCn1nc(C(=O)NNC(=O)c2ccccc2OCc2c(C)noc2C)c2ccccc2c1=O,3.4
Cc1ccc(Cc2c(C)nc3nc(SCC(=O)NCCCN4CCCCCC4)nn3c2C)cc1,4.8
COc1ccccc1N1CC(C(=O)Nc2nc(C)cs2)CC1=O (stereo not drawn),-3.9
O=C(CN1CCN(C(=O)c2ccccc2)CC1)Nc1ccccc1,7.8
O=C(OCC(=O)N1CCN(C(=O)c2ccco2)CC1)c1ccc(Cl)nc1,-0.4
CCOC(=O)C1=CC[C@@H](c2ccco2)N(S(=O)(=O)c2ccc(C)cc2)[C@H]1C(=O)OCC,-7.8
CN(Cc1ccccc1)S(=O)(=O)c1ccc(Cl)c(C(=O)OCC(=O)NC2CCS(=O)(=O)C2)c1 (stereo not drawn),-10.7
CCOc1ccc(/C=C/C(=O)OCC(=O)Nc2cccc(S(=O)(=O)N3CCCC3)c2)cc1,-2.5
Cc1ccc(C2(C)NC(=O)N(CC(=O)N3c4ccccc4NC(=O)CC3C)C2=O)cc1 (stereo not drawn),1.9
CC(C)(C)OC(=O)C[C@H]1C/C=C\C[C@H](CC(=O)NCCO)C(=O)N[C@@H](c2ccccc2)COC1=O,-4.8
CN(c1ccc(OCC(=O)N2CCCC2)cc1)S(=O)(=O)c1ccc(Cl)cc1,-1.8
CCN(CC(=O)Nc1ccc(OC)cc1)C(=O)Cc1coc2cc(C)c(C)cc12,3.4
Cc1ccc(S(=O)(=O)NCC(=O)Nc2cccnc2)cc1C,-9.3
CC1CCC(NC(=O)COC(=O)c2ccco2)CC1 (stereo not drawn),0.2
O=C(Nc1ccc(N2CCN(C(=O)c3ccco3)CC2)cc1)c1cc(Br)ccc1Cl,-1.6
CCOC(=O)[C@H]1[C@H]2COc3cc(OC)ccc3[C@@H]2N2C(=O)c3cc(C)ccc3NC(=O)[C@@]12C,52.7
Cc1ccc(C(=O)CCC(=O)NNC(=O)c2ccccc2O)cc1,2.8
CC(OC(=O)c1ccc(NC(=O)CC#N)cc1)C(=O)NC(c1ccccc1)c1ccccc1 (stereo not drawn),-1.6
Cc1nnc(N=c2ssnc2Cl)o1,-6.8
CC(=O)NC(c1ccco1)c1cc(Cl)c2ccc(Cl)nc2c1O (stereo not drawn),0.0
Cc1cccc(CNc2ncnc3ccc(-c4ccoc4)cc23)c1,93.7
Cc1ccc(C)c(SCC(=O)N(C)C2CCS(=O)(=O)C2)c1 (stereo not drawn),0.9
CCOC(=O)[C@@H]1[C@H]2COc3ccccc3[C@H]2N2C(=O)N(c3cccc(C)c3)C(=O)[C@]12C,-5.1
O=c1cc(-c2ccccc2)oc2cc(O)c(O)c(O)c12,1.6
O=[N+]([O-])c1cccc(S(=O)(=O)NCCc2cccs2)c1,-5.1

# Carrying on.
SMILES,Mtb betalactam
Cc1ccc(N(C)S(=O)(=O)c2cccc(C(=O)NNC(=O)c3ccncc3)c2)cc1,-7.9
CN(CC(=O)Nc1ccc(Cl)cc1F)C1CCS(=O)(=O)C1 (stereo not drawn),1.7
COCCN(CCOC)S(=O)(=O)NC[C@H]1O[C@@H](n2cnc3c(N)ncnc32)[C@H](O)[C@@H]1O,3.0
O=C(Nc1cccc(S(=O)(=O)NC2=NCCC2)c1)c1cnc(Cl)c(Cl)c1,-2.9
COc1ccc(CCNC(=O)COC(=O)c2cc3ccccc3oc2=O)cc1OC,4.7
Cc1ccc(C)c(C(=O)COC(=O)c2ccc(C)c(S(=O)(=O)N3CCOCC3)c2)c1,-2.7
COc1ccc(CNC(=O)CN2C(=O)NC3(CCCc4sccc43)C2=O)cc1OC (stereo not drawn),-0.6
CCN(Cc1nc2ccccc2c(=O)[nH]1)C(=O)CN1C(=O)NC2(CCCCC2C)C1=O (stereo not drawn),5.2
COc1ccc([C@@H]2CC=C(C(=O)O)[C@H](c3ccc(Cl)cc3)N2S(=O)(=O)c2ccc(Cl)cc2)cc1,2.5
CC(=O)Oc1c(C)c2c3c(c1OC(C)=O)[C@@H](C)CC[C@@H]3[C@@H](C)C[C@H]2C=C(C)C,3.0
O=C(COC(=O)c1cc([N+](=O)[O-])ccc1NCCO)Nc1cccc(S(=O)(=O)N2CCCC2)c1,-2.4
COc1cc(CNC(=O)CCCC/C=C/C(C)C)ccc1O,-3.8
Cc1ccc(CNC(=O)CN2C(=O)NC3(CC(C)CC(C)(C)C3)C2=O)cc1 (stereo not drawn),3.4
CC(=O)N1CCN(c2ccc(NCc3ccc(-c4ccc(Br)cc4)o3)cc2)CC1,35.6
CC(C)c1ccc(NC(=O)C2CCCCN2S(=O)(=O)c2ccccc2)cc1 (stereo not drawn),8.2
CN(C)S(=O)(=O)c1ccc2c(c1)/C(=C/c1cc3c([nH]1)CCCC3)C(=O)N2,-0.4
N#Cc1ccc(C(=O)NNC(=O)c2cccc(S(=O)(=O)N3CCOCC3)c2)cc1,6.2
O=C(OCC(=O)N1CCCC1=O)c1cc(S(=O)(=O)N2CCOCC2)ccc1F,1.5
CCC(C)(CN(C)C)OC(=O)c1ccccc1 (stereo not drawn),-4.5
CC1CCCC(C)N1C(=O)COc1cccc(Oc2ccccc2)c1 (stereo not drawn),-7.5
Cc1ccn2c(NC3CCCCC3)c(-c3cccc(SC4CCCCC4)c3)nc2c1,27.8
COc1ccc(C2N(C(=O)CN3CCCC3)CCCN2S(=O)(=O)c2ccccc2)cc1 (stereo not drawn),-7.3
O=C(COC(=O)Cc1ccc(Cl)cc1)NCc1ccc(F)cc1,0.5
O=C(COC(=O)/C=C/c1ccc([N+](=O)[O-])cc1)NCC1CCCCC1,7.4
O=C(COC(=O)C1C2CC3OC(=O)C1C3C2)Nc1ccc(F)cc1 (stereo not drawn),6.8
CC(C)NC(=O)N(C)C[C@H]1Oc2ccc(NC(=O)Cc3ccccc3)cc2C(=O)N([C@H](C)CO)C[C@@H]1C,-7.4
COCCNC(=O)C(c1ccc(F)cc1)N(Cc1ccco1)C(=O)CCC(=O)Nc1ccccn1 (stereo not drawn),-7.2
O=[N+]([O-])c1cc(Cl)c(Cl)cc1Cl,-3.4
Cn1c(C=O)c(-c2ccc3cc[nH]c3c2)c2ccccc21,?
COC(=O)[C@]1(C)N[C@H](CN(C)C(=O)Nc2ccc(F)cc2)[C@@H]2C(=O)N(C)C(=O)[C@@H]21,-5.0
O=S(=O)(c1ccc2c(c1)OCCO2)N1CCN(S(=O)(=O)c2ccccn2)CC1,3.1
CC(C)Cn1c(N)c(C(=O)COC(=O)C2Cc3ccccc3CN2S(C)(=O)=O)c(=O)n(C)c1=O (stereo not drawn),-2.1
COc1cc(OC)cc(-c2c(-c3ccc(F)cc3)c3cc(-c4ccc(SC)cc4)ccc3n2C)c1,-4.8
NC(=O)c1ccsc1NC(=O)COC(=O)COc1ccc(C=O)cc1,-4.0
CC(Sc1nnc(C2CC2)n1C1CC1)C(=O)NC1(C#N)CCCCC1 (stereo not drawn),-4.9
CSc1nnc(SCC(=O)Nc2ccc3[nH]c(=O)[nH]c3c2)s1,-5.8
COc1cccc(NC(=O)Nc2ccc3nc(C)c(C)nc3c2)c1,-13.3
COc1ccc(CCN(C)C(=O)CN2C(=O)NC3(CCCCCC3)C2=O)cc1OC,3.8
COc1ccc(NC(=O)CN2CCN(S(=O)(=O)c3cccs3)CC2)cc1Cl,0.8
O=C(Nc1ccccc1N1CCCCC1)C1CC(=O)N(c2ccccc2F)C1 (stereo not drawn),0.3
COc1cc2nc(CN3CCN(S(=O)(=O)c4cc(C)ccc4C)CC3)[nH]c(=O)c2cc1OC,0.9
CS(=O)(=O)c1ccccc1C(=O)Nc1cccc2ncccc12,4.6
COc1ccc(NC(=O)CN2C(=O)NC(C)(c3ccc4c(c3)OCO4)C2=O)cc1S(N)(=O)=O (stereo not drawn),-3.2
Cn1ccnc1SCC(=O)Nc1cccc(C#N)c1,-4.4
CC1CCC(CN2CCN=C2N(C)C)CC1 (stereo not drawn),-5.9
CC(=O)Nc1ccc(N)cc1,2.2
CC1CN(C(=O)c2cc(Br)c(Br)s2)CC(C)O1 (stereo not drawn),6.3
CC(=O)Nc1ccc(Nc2nc(C)nc3c2nnn3Cc2ccccc2Cl)cc1,1.3
O=C1NC(Cc2ccc(O)cc2)c2nc3ccc(Br)cc3c(=O)n2-c2ccc(Cl)cc21 (stereo not drawn),-5.6
CN(CC(=O)Nc1ccc(OC(F)(F)F)cc1)C(=O)C1CCC1,16.4

# (next part)
SMILES,Mtb betalactam
Cc1ccc(Oc2ccc(NS(=O)(=O)c3cccc(C(=O)O)c3)cc2)cc1,-4.1
O=C(COC(=O)COc1ccc(Cl)cc1Cl)NC1CCS(=O)(=O)C1 (stereo not drawn),3.1
O=C(c1ccco1)N1N=C(c2ccco2)CC1c1ccc(Cl)cc1Cl (stereo not drawn),-6.8
COc1cc(C(=O)OCC(=O)NC2CC2)cc(OC)c1OC,47.0
COc1cc(C(=O)COC(=O)C2CC2(Cl)Cl)cc(OC)c1OC (stereo not drawn),-4.0
O=C(O)c1ccc(OS(=O)(=O)c2cccc(C(F)(F)F)c2)cc1,-25.2
COc1ccc(S(=O)(=O)n2ccnc2C)c(C)c1C,1.5
C[C@H](NC(=O)c1[nH]cnc1C(=O)N[C@H](C)c1ccccc1)c1ccccc1,1.1
CN(c1ccc(OCC(=O)Nc2cc(Cl)ccc2C(=O)O)cc1)S(=O)(=O)c1ccc(F)cc1,-0.9
COc1ccc2[nH]cc(CCNC(=O)Nc3ccccc3C)c2c1,-3.5
N#Cc1ccccc1OCC(=O)OCC(=O)Nc1ccc2c(c1)OCO2,-2.0
COc1ccc(C(=O)Nc2ccc(NC(C)=O)cc2)cc1S(=O)(=O)N1CCCC1,3.6
Cc1noc(C)c1S(=O)(=O)Nc1ccc2c(c1)C(=O)N([C@H](C)CO)C[C@H](C)[C@@H](CN(C)C(=O)Nc1ccccc1)O2,3.8
COc1ccc(-c2nnc(C(C)Nc3cccc(C(=O)NC4CC4)c3)o2)cc1 (stereo not drawn),-6.5
